Screening results (PubChem BioAssay)
rRNA inh HTS – selective bacterial rRNA inhibition in E. coli; E. coli WT GFP vs humanized-ribosome RFP mutants, fluorescence, 24 h; stronger effect = lower value; DMSO median 0, no signal -100; 350,000 compounds, 1.6% hits; GFP signal change (wild-type ribosome), % (no concentration beside the values);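 active = significant combined selectivity score with lowered wild-type GFP, culture density cut under 30%, mutant RFP and density less affected; inactive = any of these conditions unmet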; also: one replicate is shown; some compounds called inactive have numbers as strong as hits
AF4-AF9 inh – blocks AF4 peptide binding to human AF9 | AlphaScreen, biotin-AF4 peptide binding to FLAG-AF9 | P42568 | inhibition, % at 10 µM | 350,000 compounds, 0.47% hits;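 active = every replicate reaching a set inhibition limit, whatever the replicate mean, cut at about 25% in these data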;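 also: 0% = plate neutral control median and 100% = total signal loss; the record names both 10 and 1 µM as test concentration; the first replicate is given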
Target sequence (P42568 whole entry, looked up): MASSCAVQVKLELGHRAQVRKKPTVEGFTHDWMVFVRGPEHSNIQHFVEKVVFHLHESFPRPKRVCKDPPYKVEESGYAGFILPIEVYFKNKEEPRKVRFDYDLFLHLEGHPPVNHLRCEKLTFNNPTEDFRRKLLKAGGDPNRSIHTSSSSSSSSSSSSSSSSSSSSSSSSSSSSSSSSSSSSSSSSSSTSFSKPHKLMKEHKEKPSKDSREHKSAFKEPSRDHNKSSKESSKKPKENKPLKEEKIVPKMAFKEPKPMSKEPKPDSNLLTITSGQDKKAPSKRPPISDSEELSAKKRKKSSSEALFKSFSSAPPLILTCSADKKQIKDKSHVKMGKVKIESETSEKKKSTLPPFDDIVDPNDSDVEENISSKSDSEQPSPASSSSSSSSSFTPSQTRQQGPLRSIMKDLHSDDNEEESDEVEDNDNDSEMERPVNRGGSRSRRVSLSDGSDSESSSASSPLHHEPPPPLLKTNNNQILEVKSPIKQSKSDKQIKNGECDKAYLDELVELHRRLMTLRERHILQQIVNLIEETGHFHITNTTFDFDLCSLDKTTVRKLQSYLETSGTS
rRNA inh HTS OD600 – second read-out of rRNA inh HTS, no call of its own (marks repeat the call); OD600 change, %; measured here: OD600 growth;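 optical density of the mix in the first replicate; 0 = DMSO median and -100 = no signal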
rRNA inh HTS RFP – second read-out of rRNA inh HTS, no call of its own (marks repeat the call); RFP signal change, %; measured here: RFP humanized mutant strains;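 first replicate; 0 = DMSO median and -100 = no signal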
An asterisk follows results filed as active; & = joins results of further samples. An excerpt; rates above refer to the full screens.

SMILES | rRNA inh HTS | rRNA inh HTS OD600 | rRNA inh HTS RFP | AF4-AF9 inh
CN(C)C(=O)C[C@H]1CC[C@H]2[C@@H](COc3ccc(NC(=O)C4CCCC4)cc3C(=O)N2C)O1 | 4.4 | 3.9 | -0.8 | -1.6
COc1cccc(C#Cc2ccc([C@@H]3[C@H](CO)N4C(=O)CN(C(=O)Cc5cccnc5)C[C@@H]34)cc2)c1 | 0.7 | -3.9 | 3.6 | 1.1
O=C(C[C@H]1CC[C@H]2[C@@H](COC[C@H](O)CN2Cc2cc(F)cc(F)c2)O1)NC1CCC1 | -6.7 | -3.5 | -2.0 | 0.1
COc1cccc(C#Cc2ccc([C@H]3[C@@H](CO)N4C(=O)CN(C(=O)Cc5cccnc5)C[C@@H]34)cc2)c1 | -4.1 | -5.9 | 1.0 | -2.1
CCCN(C)C[C@H]1Oc2cc(-c3cccc(C#N)c3)ccc2S(=O)(=O)N([C@@H](C)CO)C[C@H]1C | -0.8 | 2.9 | -3.9 | 0.9
COc1ccc(S(=O)(=O)Nc2ccc3c(c2)C(=O)N(C)C[C@@H](OC)[C@@H](C)CN[C@@H](C)CO3)cc1 | 3.8 | 5.8 | -1.4 | -0.5
Cc1ccc(S(=O)(=O)Nc2ccc3c(c2)CC(=O)N([C@@H](C)CO)C[C@H](C)[C@H](CN(C)C(=O)Nc2ccccc2)O3)cc1 | -1.0 | -4.8 | -1.7 | -2.9
N#C[C@H]1[C@@H](c2ccccc2-c2cccc(F)c2)[C@@H](CO)N1C(=O)NC1CCCC1 | -5.0 | -31.4 | -2.6 | -2.6
Cc1ccc(S(=O)(=O)N2[C@@H]3CNC[C@H]2C3c2ccc(-c3ccc(C#N)cc3)cc2)cc1 (some centres not stated) | -21.4 | -46.0 | 1.3 | -2.5
C[C@H](CO)N1C[C@H](C)[C@@H](CN(C)S(=O)(=O)c2ccc(Cl)cc2)OCCCC[C@H](C)Oc2ccc(NS(=O)(=O)c3ccccc3)cc2C1=O | -4.4 | 3.7 | -0.1 | -12.9
COc1ccc2c3c(n(C)c2c1)[C@H](CO)N(Cc1ccccc1OC)CC31CN(CC2CCOCC2)C1 | 2.9 | 0.1 | 1.2 | 12.3
COc1cccc(NC(=O)N2CC3(C2)[C@H](c2ccccc2)[C@@H](CO)N3C(=O)C2CC2)c1 | -3.4 | -5.4 | -2.2 | -1.1
O=C(c1ccncc1)N1CC(=O)N2[C@@H](CO)[C@@H](c3ccc(-c4ccccc4)cc3)[C@@H]2C1 | -3.7 | 0.7 | 3.1 | -2.3
CO[C@@H]1CN(C)C(=O)c2cc(NC(=O)c3ccc(F)cc3)ccc2OC[C@@H](C)N(C(=O)CN(C)C)C[C@H]1C | -0.1 | 4.9 | -1.6 | 2.7
O=C(C[C@H]1CC[C@@H]2[C@H](COC[C@H](O)CN2Cc2ccccc2)O1)NCCc1ccccc1 | -1.0 | -11.3 | -1.3 | -0.2
O=C(NC[C@H]1N[C@H](CO)[C@@H]1c1ccc(C2=CCCCC2)cc1)C1CCCC1 | -6.1 | -44.4 | 3.4 | 5.4
Cc1cc(NS(=O)(=O)c2ccc(NC(=O)Cc3ccc(Cl)c(Cl)c3)cc2)no1 | 5.0 | 0.6 | -1.2 | -2.4
CCCNC(=O)N1CC(=O)N2[C@H](CO)[C@@H](c3ccc(C#Cc4cccc(F)c4)cc3)[C@H]2C1 | -32.1 | -70.5 | 9.0 | -2.8
COCC(=O)N1[C@@H](CO)[C@H](c2ccccc2)C12CN(C(=O)c1ccc(F)cc1)C2 | 2.5 | 11.5 | 0.6 | -3.1
CC(=O)N1CC(=O)N2[C@H](CO)[C@@H](c3ccc(-c4ccc(C#N)cc4)cc3)[C@H]2C1 | 0.5 | -5.2 | 3.4 | -2.5
Cc1ccc(S(=O)(=O)Nc2ccc3c(c2)C(=O)N([C@@H](C)CO)C[C@@H](C)[C@@H](CN(C)C(=O)Cc2ccccc2)OCCCC[C@H](C)O3)cc1 | 2.0 | 6.1 | -3.1 | -0.4
O=C(c1ccccc1F)N1CC(=O)N2[C@H](CO)[C@@H](c3ccc(C#Cc4ccccc4)cc3)[C@H]2C1 | -39.0 | -66.8 | 6.6 | -17.7
CCCN1[C@H](CO)[C@H](c2ccc(C3=CCCC3)cc2)[C@H]1CNC(=O)NC(C)C | -0.7 | -3.1 | 1.3 | -3.2
COc1ccc2c3c([nH]c2c1)[C@@H](CO)N(C(=O)Nc1ccc(F)cc1)CC31CN(C(=O)c2ccccc2F)C1 | -5.2 | -51.2 | 29.6 | 1.9
O=C1CNC[C@H]2[C@@H](c3ccc(C#CC4CCCCC4)cc3)[C@@H](CO)N12 | 5.7 | -10.6 | 1.9 | -0.4
C[C@@H]1CCCCO[C@@H](CN(C)C(=O)Nc2ccc3c(c2)OCO3)[C@@H](C)CN([C@@H](C)CO)C(=O)c2cc(N(C)C)ccc2O1 | 5.4 | 5.6 | -2.8 | 7.3
Cc1ccc(-c2ccc([C@@H]3[C@@H](CO)N4C(=O)CN(C(=O)Nc5ccc(F)cc5)C[C@H]34)cc2)cc1 | -5.8 | -50.6 | 33.0 | 0.0
COc1ccc(-c2ccc([C@@H]3[C@@H](CO)N4C(=O)CN(C(=O)C5CCCC5)C[C@@H]34)cc2)cc1 | -1.7 | -48.7 | 19.2 | -2.4
Cc1ccc(S(=O)(=O)N2C[C@@H]3N[C@H](C2)C3c2ccc(/C=C/c3ccccc3)cc2)cc1 (some centres not stated) | -58.3&0.7 | -73.5&19.9 | -17.2&-1.5 | 4.3&-4.6
CN1C(=O)c2cc(NC(=O)c3cccs3)ccc2OC[C@@H]2O[C@H](CC(=O)NCC(F)(F)F)CC[C@H]21 | -0.8 | -0.9 | 0.4 | -1.2
CCN1[C@H](C(=O)Nc2ccccc2)[C@@H](CO)[C@@H]2Cn3c(ccc(-c4ccc(F)cc4)c3=O)[C@@H]21 | -4.5 | -17.1 | 6.0 | 3.2
C[C@@H]1CN([C@H](C)CO)C(=O)c2cccc(NC(=O)c3ccncc3)c2O[C@@H]1CN(C)C(=O)Nc1ccc(C(F)(F)F)cc1 | -8.0 | -2.2 | -2.2 | 1.2
Cc1ccc(-c2ccc([C@H]3[C@H]4CN(C(=O)Nc5ccccc5)CCCCN4[C@H]3CO)cc2)cc1 | -8.2 | -29.4 | 26.9 | -1.6
CCCC#Cc1ccc([C@@H]2[C@@H](CO)N3C(=O)CN(S(=O)(=O)c4ccccc4C)C[C@@H]23)cc1 | -1.6 | -5.9 | -2.2 | -1.6
COc1ccccc1C(=O)Nc1ccc2c(c1)OC[C@@H](C)NC[C@H](C)[C@@H](OC)CN(C)C2=O | -0.7 | -5.7 | -2.2 | -1.6
C[C@@H](NC(=O)[C@H]1[C@H](CO)[C@H]2Cn3c(cccc3=O)[C@H]2N1CC1CCCCC1)c1ccccc1 | -3.1 | -3.7 | 5.8 | -5.7
N#Cc1ccc(-c2ccc([C@H]3[C@@H](CO)N4C(=O)CN(C(=O)Cc5ccccc5)C[C@@H]34)cc2)cc1 | -3.5 | -5.5 | -1.5 | -3.4
CCCC#Cc1ccc([C@H]2[C@@H](CO)N3C(=O)CN(S(=O)(=O)c4ccccc4C)C[C@@H]23)cc1 | -0.8 | -4.4 | -1.9 | -0.3
CN1c2ccc(Br)cc2[C@H]2[C@H](CCN2C(=O)C2CCC2)[C@H]1CO | -12.8 | -13.4 | 2.9 | 2.6
COc1cccc(C(=O)Nc2ccc3c(c2)OC[C@@H](C)N(C)C[C@@H](C)[C@H](OC)CN(C)C3=O)c1 | 2.1 | 0.1 | 0.5 | 0.4
C[C@@H]1CN([C@@H](C)CO)C(=O)c2c(c3ccccc3n2C)-c2ccccc2CO[C@@H]1CN(C)C(=O)Nc1cccc(Cl)c1Cl | -0.8 | 1.5 | 0.2 | 2.3
COc1ccc(S(=O)(=O)N[C@H]2C=C[C@H](CC(=O)O)O[C@H]2CO)cc1 | -0.7 | -1.6 | -0.8 | -1.3
Cc1nn(-c2ccccc2)c(Cl)c1C(=O)OCC(=O)NCCc1ccc(S(N)(=O)=O)cc1 | -0.6 | 1.0 | 1.8 | -8.0
C[C@H]1CCCCO[C@@H](CN(C)C(=O)Nc2ccc(F)cc2)[C@@H](C)CN([C@@H](C)CO)C(=O)c2cc(NS(=O)(=O)c3ccc(Cl)cc3)ccc2O1 | 0.5 | 0.9 | -0.9 | -2.3
COC(=O)C[C@@H]1CC[C@@H]2[C@@H](COc3ccc(NC(=O)NC(C)C)cc3C(=O)N2C)O1 | 2.0 | 1.4 | -1.0 | 0.6
O=C(Nc1ccc(Cl)cc1)N[C@@H]1CC[C@H](CCNC(=O)c2cc(Cl)cc(Cl)c2)O[C@@H]1CO | -56.6 | -78.3 | -12.7 | -1.5
C[C@H](CO)N1C[C@H](C)[C@@H](CN(C)CC2CC2)OCCCC[C@H](C)Oc2ccc(NC(=O)c3ccncc3)cc2C1=O | 5.3 | 3.7 | 0.3 | -1.6
O=C(C1CCC1)N1CC2(C1)[C@H](c1ccccc1)[C@H](CO)N2Cc1nccs1 | 2.8 | 3.6 | -2.0 | -0.2
O=C(C[C@H]1CC[C@@H](NC(=O)C2CCOCC2)[C@H](CO)O1)NCC1CC1 | 2.8 | 4.0 | -0.4 | -2.6
O=C(Cc1cccnc1)N1CC(=O)N2[C@H](CO)[C@@H](c3ccc(C#CC4CCCC4)cc3)[C@H]2C1 | 0.9 | -0.3 | 0.7 | 1.9
CCCNC(=O)N1CC2(CN(Cc3cccnc3)C2)c2c(n(C)c3cc(OC)ccc23)[C@@H]1CO | -0.4 | 6.3 | 0.3 | 9.6
CCCNC(=O)N1[C@H](CO)[C@H](c2ccccc2)[C@H]1CNC(=O)C1CCCC1 | 5.0 | 9.3 | -3.9 | -2.1
CN1c2ccc(C#Cc3cccnc3)cc2[C@H]2[C@H](CCN2C(=O)C2CCCC2)[C@@H]1CO | -1.9 | -4.3 | 14.3 | 4.6
CCCNC(=O)N1[C@H](CO)[C@H](c2ccc(C3=CCCCC3)cc2)[C@H]1CNC(C)C | 0.5 | 6.4 | 0.6 | 6.8
O=C(Nc1ccc(F)cc1)N1CC(=O)N2[C@H](C1)[C@H](c1ccc(C#Cc3cccnc3)cc1)[C@@H]2CO | -6.0 | -2.9 | 1.1 | -1.4
CC(C)NC(=O)N(C)C[C@H]1Oc2ccc(NS(=O)(=O)c3ccccc3)cc2CC(=O)N([C@H](C)CO)C[C@H]1C | 2.3 | -0.4 | 2.3 | -3.4
COc1ccc(C(=O)c2[nH]c(N)c(C(=O)NCCc3c[nH]c4ccccc34)c2-c2ccccc2C(F)(F)F)cc1 | 7.9 | 13.6 | 0.8 | -5.8
OC[C@@H]1Nc2ccc(C#Cc3ccccc3)cc2[C@@H]2[C@H]1CCN2Cc1nccs1 | -58.9 | -73.5 | -19.9 | 18.3
COCC(=O)N1CC[C@H]2[C@H](CO)Nc3ccc(C#Cc4ccc(OC)cc4)cc3[C@H]21 | -7.5 | -8.9 | 2.1 | 22.9
CCOc1ccc(CCNC(=O)COC(=O)C2CCN(S(=O)(=O)c3ccccc3)CC2)cc1OCC | 0.8 | -4.5 | 2.4 | -15.0

Single records, from the list above:
Profile of Cc1ccc(S(=O)(=O)N2[C@@H]3CNC[C@H]2C3c2ccc(-c3ccc(C#N)cc3)cc2)cc1 (some centres not stated) : rRNA inh HTS = -21.4; rRNA inh HTS OD600 = -46.0; rRNA inh HTS RFP = 1.3; AF4-AF9 inh = -2.5
Profile of COc1cccc(C(=O)Nc2ccc3c(c2)OC[C@@H](C)N(C)C[C@@H](C)[C@H](OC)CN(C)C3=O)c1 : rRNA inh HTS = 2.1; rRNA inh HTS OD600 = 0.1; rRNA inh HTS RFP = 0.5; AF4-AF9 inh = 0.4
Profile of C[C@H]1CCCCO[C@@H](CN(C)C(=O)Nc2ccc(F)cc2)[C@@H](C)CN([C@@H](C)CO)C(=O)c2cc(NS(=O)(=O)c3ccc(Cl)cc3)ccc2O1 : rRNA inh HTS = 0.5; rRNA inh HTS OD600 = 0.9; rRNA inh HTS RFP = -0.9; AF4-AF9 inh = -2.3

(cont.)
SMILES | rRNA inh HTS | rRNA inh HTS OD600 | rRNA inh HTS RFP | AF4-AF9 inh
Cc1ccc(S(=O)(=O)N(C)C[C@H]2OCCCC[C@H](C)Oc3ccc(NC(=O)c4ccncc4)cc3C(=O)N([C@@H](C)CO)C[C@H]2C)cc1 | -0.6 | -5.3 | 3.3 | -3.7
O=C(c1ccccc1)N1CC[C@H]2[C@H](CO)Nc3ccc(C#Cc4ccccc4F)cc3[C@H]21 | -5.7 | -7.2 | 12.0 | 1.9
C[C@H](CO)N1C[C@H](C)[C@H](CN(C)Cc2ccncc2)Oc2ccc(N(C)C)cc2CC1=O | 5.2 | 1.3 | -1.5 | -9.5
Cc1noc(C)c1S(=O)(=O)Nc1ccc2c(c1)C(=O)N([C@H](C)CO)C[C@@H](C)[C@@H](CN(C)C)OCCCC[C@@H](C)O2 | -1.3 | 0.6 | 2.2 | -2.9
O=C(C1CCC1)N1CC(=O)N2[C@H](C1)[C@H](c1ccc(-c3ccccc3F)cc1)[C@@H]2CO | -1.1 | -4.1 | -2.1 | 0.8
CN(C)CC#Cc1ccc([C@H]2[C@H]3CN(C(=O)c4cccc(F)c4)CC(=O)N3[C@H]2CO)cc1 | 2.8 | -1.2 | -4.0 | -2.9
CN(C)C(=O)c1ccc(-c2ccc(C3[C@H]4CNC[C@@H]3N4S(=O)(=O)c3ccc(F)cc3)cc2)cc1 (some centres not stated) | -0.8 | 10.4 | 2.0 | 8.6
